# Assay outcomes: PubChem BioAssay, Broad Institute
# Yeast UUG start: modulators of yeast start codon fidelity, primary screen, whole organism, S. cerevisiae, single point, plate reader. AID 602363, 2012. 0.13% of 350,000 active. activity score, % at 18.7 µM. S. cerevisiae UUG-firefly luciferase reporter, luminescence/redox ratio;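 active = replicate mean at a twofold rise or more, about +100% in these data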;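 also: firefly luciferase made from a UUG start codon reports start codon fidelity; reporter light over untreated wells divided by growth signal over untreated wells; some hits fall short of that in this replicate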
# Env fusion inh: inhibitors of HIV-1 Env-driven cell-cell fusion, primary screen, HeLa-JRFL effector, CEM21 target cells, luciferase; inhibition, % at 12.3 µM; 1.1% of 360,000 active; AID 651610, 2012;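 active = mean replicate inhibition score of at least 50 and every replicate individually at or above 50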;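 also: 0% = plate neutral controls and 100% = maraviroc near 300 nM; one replicate is shown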
# Active calls of the source: *; [ ] = remark or other dose.
# The first 11 compounds, ahead of the listing:
SMILES,Yeast UUG start,Env fusion inh
Cc1noc(C)c1S(=O)(=O)N(C)C[C@@H]1OCCCC[C@@H](C)Oc2ccc(NC(=O)NC3CCCCC3)cc2C(=O)N([C@H](C)CO)C[C@H]1C,8,-25[16.7 µM]
Cc1ccccc1-c1cnc2c(c1)C(=O)N([C@H](C)CO)C[C@H](C)[C@@H](CN(C)C(=O)CN(C)C)O2,0,-7[16.7 µM]
COc1ccc(C#Cc2cnc3c(c2)C(=O)N([C@H](C)CO)C[C@H](C)[C@H](CN(C)Cc2ccccc2)O3)cc1OC,-1,-19[16.7 µM]
CCCC#Cc1cnc2c(c1)C(=O)N([C@@H](C)CO)C[C@@H](C)[C@@H](CN(C)C(=O)c1ccccc1)O2,1,-1[16.7 µM]
C[C@H](CO)N1C[C@H](C)[C@H](CN(C)C(=O)c2ccncc2)OCCCC[C@H](C)Oc2ccc(NC(=O)CCCCCC(=O)Nc3ccccc3N)cc2C1=O,5,-3[16.7 µM]
C[C@H]1CCCCO[C@@H](CN(C)C)[C@@H](C)CN([C@@H](C)CO)C(=O)c2cc(NC(=O)c3ccncc3)ccc2O1,3,-22[16.7 µM]
COCC(=O)Nc1ccc2c(c1)[C@H]1C[C@H](CC(=O)NCc3cccc(F)c3)O[C@@H](CO)[C@H]1O2,-1,-3[16.7 µM]
COC(=O)C[C@H]1CC[C@H]2[C@H](COc3ccc(NC(=O)NC(C)C)cc3C(=O)N2C)O1,-2,14[16.7 µM]
C[C@H](CO)N1C[C@H](C)[C@H](CN(C)Cc2ccc3c(c2)OCO3)Oc2ccc(NC(=O)Nc3ccc(C(F)(F)F)cc3)cc2CC1=O,14,43[16.7 µM]
O=C(C[C@@H]1CC[C@H](NC(=O)C2CCOCC2)[C@H](CO)O1)NCC1CCCCC1,-14,11[16.7 µM]
COc1cccc(S(=O)(=O)N(C)C[C@H]2Oc3ncc(C#CC(C)C)cc3C(=O)N([C@H](C)CO)C[C@@H]2C)c1,-7,-6[16.7 µM]

# The list itself (from the top)
SMILES,Yeast UUG start,Env fusion inh
Cc1noc(C)c1S(=O)(=O)N(C)C[C@@H]1OCCCC[C@@H](C)Oc2ccc(NC(=O)NC3CCCCC3)cc2C(=O)N([C@H](C)CO)C[C@H]1C,8,-25[16.7 µM]
Cc1ccccc1-c1cnc2c(c1)C(=O)N([C@H](C)CO)C[C@H](C)[C@@H](CN(C)C(=O)CN(C)C)O2,0,-7[16.7 µM]
COc1ccc(C#Cc2cnc3c(c2)C(=O)N([C@H](C)CO)C[C@H](C)[C@H](CN(C)Cc2ccccc2)O3)cc1OC,-1,-19[16.7 µM]
CCCC#Cc1cnc2c(c1)C(=O)N([C@@H](C)CO)C[C@@H](C)[C@@H](CN(C)C(=O)c1ccccc1)O2,1,-1[16.7 µM]
C[C@H](CO)N1C[C@H](C)[C@H](CN(C)C(=O)c2ccncc2)OCCCC[C@H](C)Oc2ccc(NC(=O)CCCCCC(=O)Nc3ccccc3N)cc2C1=O,5,-3[16.7 µM]
C[C@H]1CCCCO[C@@H](CN(C)C)[C@@H](C)CN([C@@H](C)CO)C(=O)c2cc(NC(=O)c3ccncc3)ccc2O1,3,-22[16.7 µM]
COCC(=O)Nc1ccc2c(c1)[C@H]1C[C@H](CC(=O)NCc3cccc(F)c3)O[C@@H](CO)[C@H]1O2,-1,-3[16.7 µM]
COC(=O)C[C@H]1CC[C@H]2[C@H](COc3ccc(NC(=O)NC(C)C)cc3C(=O)N2C)O1,-2,14[16.7 µM]
C[C@H](CO)N1C[C@H](C)[C@H](CN(C)Cc2ccc3c(c2)OCO3)Oc2ccc(NC(=O)Nc3ccc(C(F)(F)F)cc3)cc2CC1=O,14,43[16.7 µM]
O=C(C[C@@H]1CC[C@H](NC(=O)C2CCOCC2)[C@H](CO)O1)NCC1CCCCC1,-14,11[16.7 µM]
COc1cccc(S(=O)(=O)N(C)C[C@H]2Oc3ncc(C#CC(C)C)cc3C(=O)N([C@H](C)CO)C[C@@H]2C)c1,-7,-6[16.7 µM]
C[C@@H]1CN([C@@H](C)CO)C(=O)Cc2cc(NC(=O)Cc3ccccc3)ccc2O[C@H]1CN(C)C(=O)Nc1cccc2ccccc12,11,-1[16.7 µM]
C[C@@H]1CN([C@H](C)CO)C(=O)c2cccc(NS(=O)(=O)c3ccccc3)c2O[C@@H]1CN(C)C(=O)Nc1ccc(C(F)(F)F)cc1,-9,-12[16.7 µM]
C[C@H](CO)N1C[C@H](C)[C@H](CN(C)S(=O)(=O)c2ccccc2)Oc2ncc(C#Cc3ccccc3)cc2C1=O,-5,5[16.7 µM]
C[C@@H]1CCCCO[C@@H](CN(C)S(=O)(=O)c2ccc(F)cc2)[C@@H](C)CN([C@@H](C)CO)C(=O)c2cc(NC(=O)CCCN(C)C)ccc2O1,35,1[16.7 µM]
C[C@@H]1CCCCO[C@@H](CN(C)C(=O)Nc2ccc(C(F)(F)F)cc2)[C@H](C)CN([C@H](C)CO)C(=O)c2cc(NC(=O)Cc3ccccc3)ccc2O1,5,-16[16.7 µM]
C[C@@H](NC(=O)C[C@H]1C[C@H]2c3cc(NC(=O)NC4CCCC4)ccc3O[C@H]2[C@@H](CO)O1)c1ccccc1,24,21[16.7 µM]
COc1ccc(S(=O)(=O)N(C)C[C@H]2OCCCC[C@H](C)Oc3ccc(NC(=O)CCCN(C)C)cc3C(=O)N([C@H](C)CO)C[C@@H]2C)cc1,17,-2[16.7 µM]
C[C@H]1CN([C@@H](C)CO)C(=O)c2cc(C3=CCCCC3)cnc2O[C@@H]1CN(C)C(=O)c1ccc2c(c1)OCO2,4,-25[16.7 µM]
O=C(C[C@H]1CC[C@@H](NC(=O)c2ccncc2)[C@H](CO)O1)NCC1CCCCC1,-12,4[16.7 µM]
COc1cccc(C#Cc2cnc3c(c2)C(=O)N([C@H](C)CO)C[C@@H](C)[C@@H](CN(C)C(=O)C2CC2)O3)c1,6,-19[16.7 µM]
Cc1noc(C)c1NC(=O)Nc1ccc2c(c1)C(=O)N([C@@H](C)CO)C[C@H](C)[C@@H](CN(C)C(=O)Nc1cccc3ccccc13)OCCCC[C@H](C)O2,14,6[16.7 µM]
COc1ccc(CN(C)C[C@H]2Oc3ccc(NC(=O)Nc4c(C)noc4C)cc3C(=O)N([C@H](C)CO)C[C@H]2C)cc1,22,0[16.7 µM]
C[C@H](CO)N1C[C@H](C)[C@H](CN(C)Cc2ccncc2)OCCCC[C@H](C)Oc2ccc(NC(=O)C3CCCCC3)cc2C1=O,-6,-39[16.7 µM]
O=C(Nc1ccc(Cl)cc1)N[C@@H]1CC[C@H](CCn2cc(Cc3ccccc3)nn2)O[C@H]1CO,-1,-1[16.7 µM]
CCC(=O)Nc1ccc2c(c1)C(=O)N(C)C[C@@H](OC)[C@H](C)CN(C(=O)c1cccnc1)[C@@H](C)CO2,-18,-15[16.7 µM]
C[C@H](CO)N1C[C@H](C)[C@H](CN(C)Cc2ccc(-c3ccccc3)cc2)Oc2ccc(NC(=O)C3CCCCC3)cc2CC1=O,-1,-74[16.7 µM]
Cc1ccc(S(=O)(=O)Nc2ccc3c(c2)C(=O)N([C@H](C)CO)C[C@@H](C)[C@@H](CN(C)C(=O)C2CCCCC2)OCCCC[C@@H](C)O3)cc1,34,34[16.7 µM]
C[C@H]1CCCCO[C@H](CN(C)C(=O)Nc2ccc(C(F)(F)F)cc2)[C@@H](C)CN([C@@H](C)CO)C(=O)c2cc(NS(=O)(=O)c3cn(C)cn3)ccc2O1,-14,13[16.7 µM]
CCNC(=O)Nc1ccc2c(c1)C(=O)N(C)[C@@H]1CC[C@H](CC(=O)Nc3ccccc3)O[C@@H]1CO2,-2,-21[16.7 µM]
CC(C)CC#Cc1cnc2c(c1)C(=O)N([C@@H](C)CO)C[C@H](C)[C@H](CN(C)C(=O)Nc1cccc(F)c1)O2,11,18[16.7 µM]
COc1ccc(S(=O)(=O)Nc2ccc3c(c2)C(=O)N([C@@H](C)CO)C[C@@H](C)[C@@H](CN(C)Cc2ccc(C(=O)O)cc2)OCCCC[C@H](C)O3)cc1,65,0[16.7 µM]
C[C@H]1CN([C@@H](C)CO)C(=O)Cc2cc(NC(=O)Nc3ccccc3)ccc2O[C@H]1CN(C)Cc1ccc(C(F)(F)F)cc1,22,-10[16.7 µM]
C[C@H](CO)N1C[C@H](C)[C@H](CN(C)C(=O)c2ccccc2)OCCCC[C@H](C)Oc2ccc(NC(=O)Nc3ccccc3)cc2C1=O,6,39[16.7 µM]
CCC(=O)N[C@H]1C=C[C@H](CC(=O)NCCN2CCCCC2)O[C@H]1CO,-21,-6[16.7 µM]
C[C@@H]1CN([C@H](C)CO)C(=O)c2cc(-c3ccccc3F)cnc2O[C@H]1CN(C)C,-8,-4[16.7 µM]
C[C@@H]1CN([C@@H](C)CO)C(=O)Cc2cc(NS(=O)(=O)c3ccc(Cl)cc3)ccc2O[C@@H]1CN(C)S(=O)(=O)c1ccc(F)cc1,-5,-2[16.7 µM]
O=C(N[C@H]1CC[C@H](CC(=O)N2CCc3ccccc3C2)O[C@H]1CO)C1CCC1,-13,-7[16.7 µM]
Cc1cc(C(=O)Nc2cccc3c2O[C@H](CN(C)CC2CCCCC2)[C@@H](C)CN([C@@H](C)CO)C3=O)n(C)n1,-5,-3[16.7 µM]
O=C(Nc1ccccc1)Nc1ccc2c(c1)[C@@H]1C[C@@H](CC(=O)N3CCCCC3)O[C@@H](CO)[C@@H]1O2,22,10[16.7 µM]
O=C(C[C@@H]1C=C[C@@H](NC(=O)c2ccccn2)[C@H](CO)O1)NCc1cccc(F)c1,-5,16[16.7 µM]
C[C@H]1CN([C@@H](C)CO)S(=O)(=O)c2ccc(C#CCN(C)C)cc2O[C@@H]1CN(C)C(=O)C1CC1,12,-5[16.7 µM]
CCCNC(=O)N(C)C[C@@H]1Oc2cc(-c3cccnc3)ccc2S(=O)(=O)N([C@H](C)CO)C[C@@H]1C,-5,7[16.7 µM]
O=C(C[C@H]1CC[C@H](NC(=O)Nc2ccc3c(c2)OCO3)[C@@H](CO)O1)NCc1ccc(Cl)cc1,-9,-16[16.7 µM]
CNC[C@@H]1Oc2c(NC(=O)Nc3ccc(C(F)(F)F)cc3)cccc2C(=O)N([C@@H](C)CO)C[C@H]1C,-13,-4[16.7 µM]
COc1ccc(NC(=O)N[C@@H]2CC[C@H](CCn3cc(C4(O)CCCC4)nn3)O[C@H]2CO)cc1,-11,-2[16.7 µM]
CC(C)CC#Cc1cnc2c(c1)C(=O)N([C@H](C)CO)C[C@@H](C)[C@@H](CN(C)S(=O)(=O)c1cn(C)cn1)O2,-2,0[16.7 µM]
C[C@H](CO)N1C[C@H](C)[C@@H](CN(C)C(=O)Nc2ccc(C(F)(F)F)cc2)OCCCC[C@H](C)Oc2ccc(NC(=O)c3ccncc3)cc2C1=O,4,-15[16.7 µM]
C[C@H](CO)N1C[C@H](C)[C@@H](CN(C)C(=O)C2CCOCC2)Oc2cc(C3=CCCCC3)ccc2S1(=O)=O,-1,-6[16.7 µM]
C[C@@H]1CN([C@H](C)CO)C(=O)c2cc(NC(=O)CCC(F)(F)F)ccc2O[C@H]1CN(C)CC1CCCCC1,1,-8[16.7 µM]
COc1ccc(NC(=O)N(C)C[C@@H]2Oc3ccc(NS(=O)(=O)c4cn(C)cn4)cc3CC(=O)N([C@H](C)CO)C[C@H]2C)cc1,-13,-4[16.7 µM]
C[C@@H]1CN([C@@H](C)CO)C(=O)c2cc(Br)cnc2O[C@@H]1CN(C)C(=O)NC1CCCC1,12,11[16.7 µM]
COCC(=O)N1[C@H](C#N)[C@H](c2ccc(-c3cccc(F)c3)cc2)[C@H]1CO,0,20[16.7 µM]
Cc1noc(C)c1S(=O)(=O)Nc1ccc2c(c1)C(=O)N([C@H](C)CO)C[C@@H](C)[C@@H](CN(C)Cc1ccccc1)OCCCC[C@H](C)O2,12,-27[16.7 µM]
C[C@@H]1CCCCO[C@@H](CN(C)Cc2ccc(C(F)(F)F)cc2)[C@H](C)CN([C@@H](C)CO)C(=O)c2cc(NC(=O)Nc3ccccc3)ccc2O1,2,40[16.7 µM]
C[C@@H]1CN([C@@H](C)CO)C(=O)c2cc(NC(=O)CCC(F)(F)F)ccc2O[C@H]1CN(C)C(=O)Nc1cccc2ccccc12,17,29[16.7 µM]
CC(=O)N[C@H]1C=C[C@@H](CC(=O)NCc2ccc(Cl)cc2)O[C@H]1CO,-14,-6[16.7 µM]
COc1ccc(NC(=O)N(C)C[C@@H]2OCCCC[C@H](C)Oc3ccc(NS(=O)(=O)c4cn(C)cn4)cc3C(=O)N([C@@H](C)CO)C[C@@H]2C)cc1,-11,2[16.7 µM]
COC(=O)C[C@@H]1C[C@@H]2c3cc(NS(=O)(=O)c4cccc(OC)c4)ccc3O[C@@H]2[C@H](CO)O1,-7,8[16.7 µM]
Cc1ccccc1-c1cnc2c(c1)C(=O)N([C@H](C)CO)C[C@@H](C)[C@H](CN(C)CC1CCOCC1)O2,7,-9[16.7 µM]

# (listing goes on)
SMILES,Yeast UUG start,Env fusion inh
COc1ccc(CNC(=O)C[C@@H]2C=C[C@H](NC(=O)Nc3ccc4c(c3)OCO4)[C@@H](CO)O2)cc1,-12,-9[16.7 µM]
COc1ccc(NC(=O)Nc2cccc3c2O[C@H](CN(C)S(=O)(=O)c2ccc(F)cc2)[C@@H](C)CN([C@@H](C)CO)C3=O)cc1,8,6[16.7 µM]
C[C@@H]1CCCCO[C@@H](CN(C)Cc2ccccc2)[C@H](C)CN([C@@H](C)CO)C(=O)c2cc(NS(=O)(=O)c3cccs3)ccc2O1,-12,-35[16.7 µM]
O=C(C[C@H]1C[C@@H]2c3cc(NC(=O)Nc4ccccc4F)ccc3O[C@@H]2[C@H](CO)O1)NCc1cc(F)ccc1F,-11,-5[16.7 µM]
CO[C@H]1CN(C)C(=O)c2cc(NC(C)=O)ccc2OC[C@H](C)N(C(=O)c2ccccc2)C[C@@H]1C,6,3[16.7 µM]

# A portion of the library; the hit share may differ from the screen's.
